TRPML1 ag – qHTS for Agonists of the Human Mucolipin Transient Receptor Potential 1 (TRPML1). TRPML1-expressing cells, Ca2+ dye fluorescence, FDSS; host cell line not named in the record; reference of the full effect not given here. Mucolipin-1 (Homo sapiens), Q9GZU1. activation, % (no concentration beside the values). 410,000 tested, 0.12% active; in the data active = activation above about 50%; inconclusive = about 30% to 50%; inactive = below about 30%; also: 0% is about no effect; the text of the record puts the active cut at 80%
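Tetracycline-induced TRPML1-DL cells are seeded and incubated overnight before loading with a no-wash Ca2+ dye and quencher. Agonist activity is taken from the 110 s fluorescence read following compound pin-transfer on an FDSS, before EC80 54-4 challenge.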
Sfp PPTase inh – qHTS Assay for Inhibitors of Bacillus subtilis Sfp phosphopantetheinyl transferase (PPTase); AID 1490, 2009; Biochemical Sfp PPTase activity, qHTS; 310,000 tested, 3.5% active; 4'-phosphopantetheinyl transferase ffp (Bacillus subtilis), Q9F4F7; Potency, µM, inactives show max response, negative = inhibition, actives largely listed as inhibitors; active = well fitted inhibition curve with a large enough effect; inconclusive = small, poorly fitted or top-dose-only effect, or another doubt; inactive = no such curve, though single readings can be large or run the other way;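 also: the enzyme is Sfp with the accession as filed and its product quenches rhodamine fluorescence; potency is read from the fitted curve at half-maximal effect; 0% = enzyme reaction without inhibitor and -100% = no enzyme wells; top concentration of the series not given in the record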
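Sfp 15 nM + cpd, 15 min RT; start w/ rhodamine-CoA 5 uM, BHQ-2-YbbR 12.5 uM (final); 50 mM Hepes pH 7.6, 10 mM MgCl2, 0.01% NP-40, 0.01% BSA; read 525/598 nm at 0 and 30 min.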
PINK1 modulator – A Quantitative High throughput Screen to Identify Chemical Modulators of PINK1 Expression; PINK1 immunofluorescence, high-content cytometry, 24 h; Potency, µM (titrated, usually from 76.6 µM), for inactives: at the highest dose activation (PINK1 increase), hits mostly activators; 410,000 tested, 0.2% active; AID 624263, 2012; active = well fitted activation curve with a large enough effect; inconclusive = small, poorly fitted or top-dose-only effect; inactive = flat fitted curve, though single readings scatter; cell line not stated here;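 also: potency is read from the fitted curve at half-maximal effect; % of control where 0% means no effect; nearly all actives have a fitted effect of over 65% in size; a mitochondrial uncoupler was the plate control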
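Readout is PINK1 immunofluorescence, quantified alongside mitochondrial, cell and nuclear markers by laser-scanning microplate cytometry. Cells from a stable line were exposed to compound titrations (5 concentrations) for 24 hours, with CCCP controls.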
Menin MLL FP FL – qHTS Assay for Inhibitors Targeting the Menin-MLL Interaction in MLL Related Leukemias: Competition With Fluorescein Labeled MLL-derived Peptide. Fluorescence polarization, fluorescein-MLL peptide displacement from menin. FP activity change, % at 61.4 µM. 290,000 tested, under 10 active. AID 1766, 2009; inconclusive = falling polarisation curve, or a change in total fluorescence; inactive = total fluorescence flat and polarisation flat or rising; no compound was filed as active; the % refers to the polarisation; negative = inhibition;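 also: % of control where 0% means no effect; inhibitors lower the polarisation; unlabelled MLL peptide was the positive control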
ClpP mod – qHTS Assay for Activators of ClpP. AID 651965, 2013. 340,000 tested, 1.9% active. purified B. subtilis ClpP, FRET peptide cleavage, 20 min. ATP-dependent Clp protease proteolytic subunit (Bacillus subtilis (strain 168)), P80244. Potency, µM (top dose mostly 57.5 µM), for the others: at the top dose activity change, negative = active; active = well fitted falling curve with a large enough effect; inconclusive = small, poorly fitted or top-dose-only effect; inactive = no such curve, though single readings can be large or run the other way; also: potency is read from the fitted curve at half-maximal effect; the source files actives as falling curves though it sought activators and does not explain the sign; nearly all actives have a fitted effect of over 65% in size; many hits overshoot -100%
Target sequence (P80244 whole entry, looked up): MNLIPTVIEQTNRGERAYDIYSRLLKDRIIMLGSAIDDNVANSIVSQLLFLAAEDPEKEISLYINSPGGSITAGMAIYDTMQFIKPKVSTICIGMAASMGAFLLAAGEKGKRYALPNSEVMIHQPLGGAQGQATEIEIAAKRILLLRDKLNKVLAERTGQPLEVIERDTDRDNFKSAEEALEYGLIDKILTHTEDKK
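ClpP 10 microg/mL final, pH 8 Tris/KCl buffer with BSA, glycerol, Tween-20; compound pinned in; FRET-FV substrate; RT 20 min; Ex320/Em430; ΔFRET vs ADEP 5.8 microM, DMSO, no enzyme.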
TRPV1 PAM – HTS Assay for Compounds that Act as Potentiators of the Vanilloid Receptor 1; Transient receptor potential cation channel subfamily V member 1 (Homo sapiens), Q8NER1; TRPV1-expressing cells, Fluo-8 calcium influx, capsaicin EC20 potentiation; host cell line not named in the record; control for the full effect not named in the record; potentiation, % at 8.33 µM; 320,000 tested, 0.02% active; AID 540277, 2011; active means potentiation above 80%; inconclusive means 30% to 80%; inactive means below 30%; also: 0% is about no effect
Target sequence (Q8NER1 whole entry, looked up): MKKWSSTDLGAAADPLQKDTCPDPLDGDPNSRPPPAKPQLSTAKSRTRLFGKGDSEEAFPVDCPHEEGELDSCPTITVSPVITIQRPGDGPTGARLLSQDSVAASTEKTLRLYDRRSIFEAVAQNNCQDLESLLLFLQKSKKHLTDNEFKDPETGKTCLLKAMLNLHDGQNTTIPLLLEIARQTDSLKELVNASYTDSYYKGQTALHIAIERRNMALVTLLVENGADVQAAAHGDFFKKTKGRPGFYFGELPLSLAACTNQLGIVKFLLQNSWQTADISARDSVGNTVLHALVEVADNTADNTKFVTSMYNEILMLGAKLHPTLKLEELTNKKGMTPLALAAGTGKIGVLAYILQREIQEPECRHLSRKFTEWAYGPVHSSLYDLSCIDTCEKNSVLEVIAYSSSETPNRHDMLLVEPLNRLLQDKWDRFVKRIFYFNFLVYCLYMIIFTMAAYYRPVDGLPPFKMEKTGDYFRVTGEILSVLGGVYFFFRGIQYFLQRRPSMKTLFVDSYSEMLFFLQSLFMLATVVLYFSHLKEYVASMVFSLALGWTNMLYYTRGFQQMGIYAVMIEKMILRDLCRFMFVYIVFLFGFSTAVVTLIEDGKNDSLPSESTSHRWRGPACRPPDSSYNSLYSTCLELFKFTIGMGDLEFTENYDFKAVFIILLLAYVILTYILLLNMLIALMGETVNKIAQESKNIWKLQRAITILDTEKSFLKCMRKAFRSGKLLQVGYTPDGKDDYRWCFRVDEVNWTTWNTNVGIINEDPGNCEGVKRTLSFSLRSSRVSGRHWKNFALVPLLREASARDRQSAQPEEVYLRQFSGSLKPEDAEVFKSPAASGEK
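TRPV1-expressing cells were cultured overnight at 35.5C and loaded with Fluo-8 calcium dye for 40 to 90 min at room temperature. After a 10 s baseline, compound was added and calcium influx was read kinetically for 3 min (ex 480/em 520 nm).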
TRPML1 inh – qHTS for Inhibitors of the Human Mucolipin Transient Receptor Potential 1 (TRPML1); Mucolipin-1 (Homo sapiens), Q9GZU1; activity change, negative = inhibition, % (test concentration not listed); TRPML1-inducible cells, Ca2+ dye fluorescence, FDSS; hits give low values; inhibition of EC80 agonist-evoked calcium signal; 390,000 tested, 0.02% active; in the data active means activity change below about -50%; inconclusive means about -30% to -50%; inactive means above about -30%;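 also: stimulus is agonist 54-4 at its EC80 concentration; % is scaled to controls: 0 for no effect and ±100 for the full control effect; compound concentration not given in the record; the text of the record puts the active cut at -80%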
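Calcium fluorescence in TRPML1-DL cells induced overnight with Tet: a 110 s read after compound pin addition, then a 110 s antagonist read after challenge with 54-4 at 4 uM final (EC80).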
* = called active by the depositor; ? = inconclusive; nt = no result given; & = joins results of further samples; [ ] = remark or other dose. Hits appear at their usual frequency; overall some 4.4% were active at least once.

Values run as follows: Sfp PPTase inh	TRPML1 inh	PINK1 modulator	TRPV1 PAM	ClpP mod	TRPML1 ag	Menin MLL FP FL
> Cc1nc(S(=O)(=O)Nc2ccccc2C(=O)NCC2CC2)cn1C
→ 8%	3	-0.7%	-5	nt	-0.2	-0.9
> Cc1cc(Cl)cc(Cl)c1OCC(=O)NCc1ccco1
→ ?	-14	-1.1%	-1	-1.6%	-0.6	7.0
> Oc1ccc(/C=N/Nc2ccc(C(F)(F)F)cn2)cc1O
→ 28µM*	-5	-1.5%	-8	nt	0.1	2.1
> CSc1cccc(NCc2ccc([N+](=O)[O-])cc2)c1
→ ?	31	1.8%	6	nt	1.6	-1.3
> Oc1cccc2ccc(/C=C/c3cccs3)nc12
→ ?	-9	1.8%[38.3 µM]	6	-5.9%	0.8	3.2
> CCOc1ccccc1N(CC(=O)NCCc1ccc(OC)c(OC)c1)S(=O)(=O)c1ccccc1
→ 15%	6	0.5%	-5	nt	1.0	0.5
> COc1ccccc1-c1sc2ccccc2c1C#CC1(O)CCCCC1
→ nt	-1	5.6%	nt	-0.1%	-0.7	nt
> CN(C)CCCNc1cn[nH]c(=O)c1Cl
→ 20%	42	0.9%[38.3 µM]	-3	0.9%	0.2	0.2
> O=C(N/N=C/c1ccco1)c1cc(-c2ccccc2)n[nH]1
→ -1%	-1	-1.2%	-10	-1.3%	-0.5	-2.8
> COc1cccc(/C(O)=C2/C(=O)C(=O)N(CCCN3CCOCC3)C2c2ccncc2)c1 (configuration not stated)
→ 20%	-5	-2.3%	1	0.6%	-0.3	1.5
> CCOc1ccc(N(CC(=O)N2CCCC2)S(=O)(=O)c2c(C)noc2C)cc1
→ 12%	-2	-0.4%	-1	-0.6%&-1.1%	0.1	4.4
> Cc1nn(Cc2c(Cl)cccc2Cl)c(C)c1NC(=O)c1sc2ccccc2c1Cl
→ ?	2	1.4%	11	0.7%	0.4	0.0
> O=C(Nc1ccc(Cl)cc1)C1CCN(C(=O)c2ccco2)CC1
→ 0%	-3	1.2%	4	nt	0.0	1.0
> CCc1ccc(-c2nn(-c3ccccc3)cc2CSC(=N)N)cc1
→ 40µM*	5	-2.8%	-10	-6.6%	0.2	3.3
> O=C(C1CCN(S(=O)(=O)c2ccc(-n3cnnn3)cc2)CC1)N1CCCCC1
→ 23%	-3	-0.8%	22	-11%	-0.1	2.1
> Cn1c(SCC(=O)c2ccccc2)nnc1C1COc2ccccc2O1 (configuration not stated)
→ 1%	13	0.2%	-12	nt	0.0	-3.1
> COc1ccc(C(C)=O)cc1CN1CCCCC1
→ 1%	?	2.2%	-14	-1.9%	1.2	5.3
> Cc1ccc(NCc2ccc([N+](=O)[O-])s2)cc1
→ -6%	23	-0.7%	8	1.1%	-0.5	0.7
> O=C(c1cccnc1NCc1ccccc1)N1CCOCC1
→ 17%	-1	-1.0%	9	-6.8%	-1.1	0.6
> Cc1nc(N2CCCCC2)c2sc(=S)n(C)c2n1
→ 13%	-4	1.2%	1	2.4%	1.6	-1.6
> Cc1nc(=O)c(-c2ccccc2)c(C)n1-c1ccc(Br)cc1
→ 5%	-21	-1.4%	4	0.3%	-0.5	-1.3
> O=C(C1CCCN(S(=O)(=O)c2cnc[nH]2)C1)N1CCN(c2ccc(Cl)cc2)CC1 (configuration not stated)
→ 17%	12	1.3%	23	-3.5%	-0.3	2.3
> COc1cc2c(NC3CCN(C)CC3)nc(N3CCCN(C)CC3)nc2cc1OCCCCCN(C)C
→ nt	nt	-1.1%	nt	4.4%	-0.6	nt
> Cc1cc(C(=O)N2CCCC(CO)(Cc3ccc(F)cc3F)C2)nn1C (configuration not stated)
→ nt	-6	0.3%	nt	-1.1%	-0.1	nt
> O=C(N/C(=C\c1ccc([N+](=O)[O-])cc1)C(=O)N1CCCCC1)c1ccccc1
→ 18%	3	-1.3%	-12	nt	0.2	3.1
> CCOC(=O)C1(Cc2ccccc2C)CCCN(S(C)(=O)=O)C1 (configuration not stated)
→ -1%	-2	2.3%	-4	-0.5%	0.9	-1.1
> COc1cccc(N2CCN(C(=O)C3C4C=CC5(CN(Cc6ccccc6Cl)C(=O)C35)O4)CC2)c1 (configuration not stated)
→ -6%	-6	13%[38.3 µM]	nt	-0.9%	0.2	?
> CC(=O)c1cccc(NC(=O)C2C3CCC(C3)C2C(=O)O)c1 (configuration not stated)
→ -8%	17	2.9%	0	-3.3%	0.2	1.0
> COc1cccc(NC(=O)N(CCN(C)C)C(C)c2cccnc2)c1 (configuration not stated)
→ 15%	nt	1.2%	-7	0.4%	nt	2.8
> Cc1c(C(=O)N2CCN(c3ccccc3)CC2)sc2nc3n(c(=O)c12)CCC3
→ 0%	-7&1	2.2%&-1.2%	5	-1.9%&-2.5%	-0.4&-0.2	-3.7
> O=C(N/N=C/c1ccccn1)c1ccco1
→ ?	9	-2.6%	3	2.2%	-0.8	0.7
> CCc1ccc(/C=C2\SC(=S)N(CCCC(=O)Nc3cc(C)on3)C2=O)cc1
→ nt	9	0.1%	nt	1.0%	-0.1	nt
> CCCN1CCC(NC(=O)Nc2cccc3ccccc23)CC1
→ 6%	14	0.1%	-8	4.2%	-0.2	1.4
> CCC(=O)c1cn(CC(=O)NCc2ccco2)c2ccccc12
→ ?	3	-0.8%	5	-3.7%	0.1	-2.0
> CCCC(=O)Nc1ccc(C(=O)N2CCCC2)cc1
→ 21%	-9	3.0%	-1	0.9%	-0.6	1.2
> CC(C)(C)NC(=S)N/N=C\c1ccc(-c2ccc([N+](=O)[O-])cc2)o1
→ 32µM*	-10	10%	13	nt	20	9.5
> COc1ccc(C)cc1S(=O)(=O)N1CCN(C/C=C/c2ccccc2)CC1
→ nt	2	-1.0%	3	-8.3%	-0.8	nt
> O=C(COC(=O)c1ccc[nH]c1=O)Nc1cc(S(=O)(=O)N2CCCCCC2)ccc1Cl
→ nt	10	3.1%	3	-6.8%	-0.1	nt
> O=C(C1=C[C@H](c2ccc(C(F)(F)F)cc2)C[C@H](OCc2ccc(CO)cc2)O1)N1CCCCCCC1
→ 3%	35	2.8%	-13	0.8%	2.0	2.7
> O=S(=O)(Nc1ccc(O)c(Sc2nc3ccccc3s2)c1)c1cccc2ccccc12
→ 10%	6	1.8%	-19	1.4%	1.6	5.1
> COc1ccccc1C(CNC(=O)c1ccc(C)c(S(=O)(=O)N2CCCCC2)c1)N1CCCC1 (configuration not stated)
→ nt	-9	2.6%	13	nt	-0.7	nt
> COc1cccc(-c2cc(=O)c3cc(NC(=O)c4ccc(Cl)cc4)ccc3[nH]2)c1
→ 9%&4%	3	5.6%	1	-0.2%	-0.6	-0.5&-1.6
> Cc1cn(CC(=O)NCCNc2ccc([N+](=O)[O-])cn2)c(=O)[nH]c1=O
→ nt	-8	0.3%	nt	0.5%	-0.4	nt
> Cc1ccc(Sc2ncccc2C(=O)NCC(c2ccc(F)cc2)N2CCOCC2)c(C)c1 (configuration not stated)
→ nt	37	-2.4%	17	-5.7%	0.1	nt
> Cc1ccc(S(=O)(=O)/N=C(/Nc2ccc([N+](=O)[O-])cc2)c2ccccc2)cc1
→ -4%	10	8.6%	-20	nt	-0.1	-3.5
> COc1ccc(NC(=O)Cn2c(=O)n(CC3CCCO3)c(=O)c3ccccc32)c(OC)c1 (configuration not stated)
→ 7%	-2&11	0.2%&2.9%	8	1.7%	0.7&-0.5	0.0
> COc1cccc(N2CCN(C(=O)c3cccc(NC(=O)c4nsc5ccccc45)c3)CC2)c1
→ nt	4	-1.3%	nt	-2.8%	0.8	nt
> Cc1ccc(C2C(C(=O)c3ccco3)=C(O)C(=O)N2c2ncccn2)cc1 (configuration not stated)
→ 4%	7	3.9%	-5	nt	0.8	0.4
> CC(C)CCn1c(SC(C)C(=O)NC2CC2)nc2ccccc2c1=O (configuration not stated)
→ nt	-4	8.3%	9	-2.9%	-0.1	nt
> O=C1Nc2cc(Cl)c(Cl)cc2N(O)N1c1ccccc1Cl
→ 13%	-9	0.9%	?	nt	-0.6	-3.5
> CCCCOC(=O)Nc1ccc(N2CCOCC2)cc1
→ 6%	-1	1.1%[38.3 µM]	-1	0.3%	-0.6	-0.3
> COc1ccc(C(=O)NNC(=O)c2ccccn2)cc1
→ -10%	28	9.2%	-37	0.7%	-0.9	0.1
> COc1ccc(OCC(=O)N2CCN(C(=O)c3cccc(F)c3)CC2)cc1
→ 11%	-10	1.6%	0	-2.0%	-0.8	2.5
> CCN1CCN(c2csc3ccc(Br)cc3c2=O)CC1
→ nt	14	2.2%	nt	?	0.0	nt
> COC(=O)c1cc(C#N)c(SCc2ccccc2)nc1C
→ -25%	63	2.7%	9	1.5%	3.8	-1.8
> Cc1ccc2nc(N(CCCN(C)C)C(=O)c3ccc4c(c3)CCCC4)sc2c1
→ ?	3	-2.7%	13	1.0%	-0.1	-1.1
> COc1cc(NC(=O)CCN2CCN(Cc3ccccc3)CC2)cc(OC)c1
→ -10%	-5	-0.8%	13	-0.7%	0.0	0.8
> Cc1ccc(CNC(=O)Cn2ccn(-c3cccc(Cl)c3)c(=O)c2=O)cc1
→ nt	-3	0.7%	nt	?	-0.7	nt
> O=c1c(-c2ccccc2)nc2cnc(Oc3cccc(Cl)c3)nc2n1C1CC1
→ -5%	nt	0.9%	nt	nt	nt	-3.6
> CCc1cc2c(nc1CC)CCN(CC/C(C)=N/OC[C@H]1O[C@H](c3ccccc3)C=C[C@@H]1Oc1ccc(OC)cc1)C2
→ -5%	nt	nt	-5	nt	nt	-1.0[11.7 µM]
> COc1ccc(NC(=O)NCCCN2CCCC2=O)c(OC)c1
→ 2%	-7	nt	-12	-0.2%	0.0	1.8
> CCCCN1C(=O)C(CC(=O)NC2CCCC2)CC(C(=O)N(C)C)=C1C (configuration not stated)
→ nt	-1	2.0%	nt	1.7%	-0.2	nt
> COc1ccc(C2=NNC(c3ccco3)=Nc3ccc(F)cc32)cc1
→ 9%	-1	2.6%	-1	nt	0.7	1.8

Compound activity from PubChem.
